Screening data from PubChem.
TNF necrop inh = inhibitors of TNF-alpha triggered necroptosis, primary screen, cell-based, Jurkat FADD-/-, single concentration. Jurkat FADD-/- TNF necroptosis rescue, ATP luminescence, 24 h; 0 = TNF only, 100 = no-TNF cells. activation (protection from cell death), % at 10 µM. 220,000 compounds, 0.068% hits. AID 463075, 2010;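 active = activation, meaning protection from cell death, of at least 50% relative to plate controls; inactive = activation below 50%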;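 note: necroptosis triggered by 40 ng/mL TNF-alpha added together with compound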
L929 necroptosis = inhibitors of zVAD-triggered necroptosis, primary screen, L929 cells | viability rescue, % at 10 µM | AID 1377, 2008 | L929 zVAD necroptosis rescue, ATP luminescence, 24 h; with zVAD 60 µM | 220,000 compounds, 0.38% hits;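 active = activation, scaled between plate controls, above about 75%, limit read from the data; inactive = activation under that limit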;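 note: 0% = zVAD with DMSO and 100% = DMSO alone without zVAD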
PERK inhibitor = block of dimerizer-induced PERK translation repression, primary screen, PERK inhibitor project, CHO PERK-DD cells, SEAP luminescence, HTS; Eukaryotic translation initiation factor 2-alpha kinase 3 (Homo sapiens), Q9NZJ5; CHO PERK-DD fusion, SEAP luminescence translation reporter; inhibition, % at 5.6 µM; 220,000 compounds, 0.17% hits; AID 1416, 2008;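 active = inhibition above the mean inhibition of all tested compounds plus 3 SD, set separately per screening campaign, cut at about 2.9% in these data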;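 note: PERK kinase domain activated by AP20187 dimerizer at 100 nM; 0% = DMSO with dimerizer and 100% = rapamycin at 8.4 µM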
RBBP9 inhibitor = human RBBP9 inhibitors, primary screen, biochemical, fluorescence polarization, FP-Rh probe, HTS; Serine hydrolase RBBP9 (Homo sapiens), O75884; recombinant RBBP9; inhibition, % at 7.94 µM; 220,000 compounds, 0.2% hits; AID 1515, 2009;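 active = inhibition above the campaign mean of all tested compounds plus 3 SD, cut at about 14% in these data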;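 note: plate controls were DMSO wells with RBBP9 for no effect and wells lacking RBBP9 protein for full effect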
Target sequence (O75884 whole entry, looked up): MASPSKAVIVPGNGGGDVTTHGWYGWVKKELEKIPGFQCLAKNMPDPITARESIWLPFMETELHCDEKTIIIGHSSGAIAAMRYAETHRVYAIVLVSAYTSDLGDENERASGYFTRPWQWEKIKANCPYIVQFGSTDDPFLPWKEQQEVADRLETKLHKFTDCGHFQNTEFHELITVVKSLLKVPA
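Measured by: FP readout at 525/598 nm; material: recombinant human RBBP9; also added: Serine-hydrolase probe FP-Rh, 375 nM pre-mixing; medium: Tris buffer pH 8.0, NaCl, Pluronic; replication: one well per compound; doses: one concentration, 7.94 µM nominal, 0.794% DMSO; timing: preincubation 30 min plus labeling 45 min at 25 °C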
EP2 antag = human EP2 receptor antagonists, primary screen, TR-FRET cAMP, C6 glioma cells. 260,000 compounds, 0.52% hits. Prostaglandin E2 receptor EP2 subtype (Homo sapiens), P43116. inhibition, % at 25 µM. C6 glioma cells expressing human EP2; cells stimulated with saturating PGE2. AID 1422, 2008;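 active = percent inhibition above 40 after rounding to a whole number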;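 note: rat C6 glioma host cells with rolipram phosphodiesterase inhibitor present; the protocol text gives 20 µM as final concentration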
Target sequence (P43116 whole entry, looked up): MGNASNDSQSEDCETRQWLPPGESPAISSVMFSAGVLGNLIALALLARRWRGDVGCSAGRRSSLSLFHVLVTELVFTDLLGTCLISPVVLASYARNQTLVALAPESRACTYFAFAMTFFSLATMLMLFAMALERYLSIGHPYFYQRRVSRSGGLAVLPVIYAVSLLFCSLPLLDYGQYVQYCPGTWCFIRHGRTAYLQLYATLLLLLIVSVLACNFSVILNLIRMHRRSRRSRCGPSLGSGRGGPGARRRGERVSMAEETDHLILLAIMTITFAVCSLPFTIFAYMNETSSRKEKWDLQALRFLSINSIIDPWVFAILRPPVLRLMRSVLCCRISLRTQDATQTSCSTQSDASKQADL
EP2 modulator = EP2 receptor modulators, cAMP readout, primary screen, cell-based, HTRF cAMP, PGE2 stimulation; EP2-expressing cells, cAMP HTRF FRET, PGE2 co-stimulation; 260,000 compounds, 0.83% hits; induction, % at 25 µM; Prostaglandin E2 receptor EP2 subtype (Homo sapiens), P43116; AID 940, 2007;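 active = compounds whose cAMP rise, as percent of the full-agonist control response, exceeds 60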;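 note: rat C6 glioma line stably carrying human EP2 under a CMV promoter; the protocol text gives 20 µM as final concentration; 100% = response of wells given 1 µM PGE2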
Hck Nef HTS = inhibitors of Nef-activated human Hck kinase, primary screen, biochemical, Z-Lyte FRET, 384-well, Hck-YEEI; inhibition, % at 20 µM; AID 463187, 2010; Recombinant Hck-YEEI plus Nef, Z-Lyte FRET kinase assay; 220,000 compounds, 0.68% hits;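 active = Hck-Nef kinase inhibition above about 50%, limit read from the data; inactive = inhibition below that limit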;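 note: 0% = DMSO with Hck plus Nef and 100% = Hck alone without Nef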
Target sequence (P08631 whole entry, looked up): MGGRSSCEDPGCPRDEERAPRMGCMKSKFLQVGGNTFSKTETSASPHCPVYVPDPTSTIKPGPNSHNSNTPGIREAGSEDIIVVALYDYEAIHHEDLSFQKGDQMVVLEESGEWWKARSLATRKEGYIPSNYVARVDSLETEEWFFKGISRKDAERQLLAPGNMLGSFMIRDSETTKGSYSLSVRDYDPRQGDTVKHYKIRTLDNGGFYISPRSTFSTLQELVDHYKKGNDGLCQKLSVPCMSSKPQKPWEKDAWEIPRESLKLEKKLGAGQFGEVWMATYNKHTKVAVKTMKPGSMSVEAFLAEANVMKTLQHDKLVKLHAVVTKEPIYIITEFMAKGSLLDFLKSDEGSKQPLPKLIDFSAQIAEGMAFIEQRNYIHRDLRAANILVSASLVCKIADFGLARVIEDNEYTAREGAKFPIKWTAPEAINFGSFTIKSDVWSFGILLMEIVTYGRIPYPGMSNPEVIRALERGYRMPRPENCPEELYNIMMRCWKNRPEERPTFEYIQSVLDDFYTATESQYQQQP
Starred values were filed as active, the others as inactive; . = not tested or not shown; & = joins results of further samples. These rows are one share of the data; count on the stated rates, not on these rows.

SMILES	TNF necrop inh	L929 necroptosis	PERK inhibitor	RBBP9 inhibitor	EP2 antag	EP2 modulator	Hck Nef HTS
Cc1ccc(C(=O)C(OC(=O)CNC(=O)c2ccc(Cl)cc2)c2ccccc2)cc1 (stereo not drawn)	-1.2	-0.1	0.8	-7	11	22	1
CCNC(=S)NS(=O)(=O)c1ccccc1	-2.8	-0.1	0.8	-7	7	14	-2
Cc1nnc(NC(=O)c2sc3nc(-c4cccs4)cc(C(F)(F)F)c3c2N)s1	-1.2	-0.4	-0.4	-8	21	-8	-2
Cc1cccc(Nc2ccccc2)c1	2.5	1.5	1.5	12	2	12	7
COc1cc(CNCCN2CCOCC2)ccc1OCc1ccc(Cl)cc1Cl	-13	0.8	-1.0	-2	21	-47	1
Cc1nc(NC(=O)c2ccco2)sc1-c1csc(Nc2ccc(Cl)cc2Cl)n1	0.1	2.4	-0.6	-8	27	4	0
CCCOc1ccc(OC(=O)c2ccc(Br)o2)cc1	-3.7	0.1	-0.1	-1	5	11	1
C=CCn1c(SCc2nc3ccccc3[nH]2)nnc1-c1cccc(OC)c1	0.7	-0.1	-0.7	-2	11	-32	11
COc1ccccc1CCN1C(=S)NC(C)(C)CC1(C)O (stereo not drawn)	-0.6	0.0	0.2	-8	7	22	0
CCc1ccc(NCCC(=O)c2ccc(Cl)cc2)cc1	-2.3	-0.2	1.2	-11	3	0	1
Cc1ccc(NC(=O)CSc2nnc(Cn3cnc4ccccc43)o2)c(C)c1	-0.3	0.3	0.5	-7	6	25	0
Cc1ccc(F)cc1NC(=O)C12CC3CC(C1)CC(n1cnc([N+](=O)[O-])n1)(C3)C2	1.5	0.2	-0.4	8	9	14	1
O=C(CCn1nc(-c2ccccc2)ccc1=O)NCCCN1CCCCCC1	-0.2	0.4	-0.3	-8	.	12	0
c1ccc(Cn2nnc3c(N4CCc5ccccc5C4)ncnc32)cc1	1.5	0.2	-1.6	-10	7	9	1
CC(NC(=O)c1ccccc1Br)c1ccc2c(c1)CCCC2 (stereo not drawn)	0.3	0.5	-0.3	-7	8	-24	-1
CCNC(=S)NNC(=O)c1csc2ccccc12	-1.2	-0.1	0.3	-3	6	6	-1
CN1CCN(c2ccc([N+](=O)[O-])cc2C(=O)c2ccc(Br)cc2)CC1	-13	-0.4	0.9	3	7	6	-1
Cc1cccc(-n2c(C)cc(/C=N/n3cnnc3)c2C)c1	-4.7	0.6	2.2	0	8	10	2
O=C(N/N=C(\c1ccccc1)c1ccccn1)c1cccc([N+](=O)[O-])c1	-8.7	45	-0.6	-8	5	6	20
CCOC(=O)c1cnc2c(N=Nc3cccc(Cl)c3)c(N)nn2c1N	-0.4	0.0	1.2	-2	10	-14	3
Cc1cc[n+](CC(=O)Nc2cc(C(F)(F)F)ccc2Cl)cc1	-2.6	-0.3	0.4	18*	9	-4	-1
CCCCCNCc1ccc(Br)cc1	1.3	0.0	0.8	-6	8	5	0
O=C(CSc1nnc(-c2ccccc2)n1-c1ccccc1)c1cccs1	-6.3	-0.4	-0.8	-7	.	38	0
CCOC(=O)c1cc2c(=O)n3ccccc3nc2n(Cc2ccco2)c1=NC(=O)c1cccnc1	-4.8	-0.4	-0.3	2	2	22	12
O=[N+]([O-])c1ccc2nccn2c1	-0.8	-0.2	2.3	-6	9	3	1
CCOC(=O)c1c(C)[nH]c2c1cc(O)c1ccccc12	-1.7	1.3	0.1	-5	10&15	-62&-18	2
CCn1c(CC(=O)Nc2ccc(C)c(Cl)c2)nnc1SCc1ccc(Cl)c(Cl)c1	-4.5	-0.2	2.2	-5	6	-3	0
CON1C(=O)C(=O)N(OC)C2CCCCC21 (stereo not drawn)	-3.3	0.0	1.8	-6	.	29	0
O=C(Nc1ccc(-c2nc3ccccc3[nH]2)cc1)c1ccc2c(c1)OCO2	5.7	2.3	-0.3	-8	17	-7	1
Cc1oc(C(=O)Nc2ccc(O)cc2)cc1COc1ccccc1	-6.0	0.2	0.3	-12	11	-21	1
O=C(NNS(=O)(=O)c1ccc(Cl)cc1)c1sccc1-n1cccc1	-1.3	-0.2	1.3	-2	7	-2	1
CN(C)CCOC(c1ccccc1)c1ccccc1 (tested in a mixture with another compound)	6.1	-1.5	1.0	-9	19&15	-8&4	2
Cc1oc(-c2cccs2)nc1CS(=O)CC(=O)NCCCOC(C)C (stereo not drawn)	0.4	0.7	0.8	-8	8	0	1
O=C1NN(c2ccccc2)C(=O)/C1=C\c1ccccc1OCC(=O)N1CCOCC1	-1.9	0.7	0.0	-4	8	-24	0
CC(=O)Nc1ccc(NCN2C(=O)C3C4CCC(C4)C3C2=O)cc1 (stereo not drawn)	-0.6	0.4	0.5	3	7	6	-2
CN1C(=O)CC(Sc2ccccc2C(=O)O)C1=O (stereo not drawn)	-0.9	-0.2	-0.5	-9	9	0	-1
COc1cc(NC(=O)CSc2ncnc3c2cnn3Cc2ccccc2)cc(OC)c1	-1.6	-0.3	0.1	6	7	-5	-2
O=C(Nc1ccc(Cc2ccncc2)cc1)c1ccc(S(=O)(=O)N2CCOCC2)cc1	-17	0.0	-0.1	-3	15	-17	1
CCOC(=O)NC(NC(=O)OCC)C(=O)c1ccc(F)cc1	0.5	0.0	1.0	5	5	7	4
O=C(NC1CCCC1)C(c1ccsc1)N(Cc1ccccc1)C(=O)Cc1cccs1 (stereo not drawn)	-7.3	-0.3	0.1	-6	.	45	2
CC(C)CCNC(=O)CN(C(=O)Cn1nnc(-c2ccccc2F)n1)c1cccc2c1CCCC2	-4.0	0.0	-0.8	-7	8	-18	-1
Cc1ccc(-c2nc3c(cnn3-c3ccccc3)c(=O)o2)cc1	-1.0	-0.3	-0.4	-4	3	38	1
COc1ccc(Oc2nc3c(c(=O)n(C)c(=O)n3C)n2Cc2ccccc2)cc1	-3.5	0.7	-1.7	-13	14	16	3
CCOC(=O)c1c(C)[nH]c(C)c1C(=O)COC(=O)c1cccc(S(=O)(=O)N(CC)CC)c1	-0.1	0.1	-0.9	-7	.	4	0
Cc1cccc(Cc2c(C)nc3nc(SCC(=O)NCc4ccco4)nn3c2C)c1	-0.9	-0.1	-0.7	-6	11	-2	-2
CCN(C(=O)COc1cc(=O)n(CC)c2ccccc12)c1cc(Cl)ccc1OC	-2.8	0.1	-0.6	-10	6	-1	0
O=C(Nc1ccc2oc(=O)ccc2c1)c1cccnc1Cl	-0.6	0.1	-0.3	-8	11	23	-1
Cc1ccsc1-c1nc(-c2ccccc2)c(-c2ccccc2)[nH]1	-1.7	1.8	0.2	1	15	58	1

3 entries already listed, ordered by their value in Hck Nef HTS, ascending.
mol,Hck Nef HTS
Cc1cccc(Cc2c(C)nc3nc(SCC(=O)NCc4ccco4)nn3c2C)c1,-2
CCN(C(=O)COc1cc(=O)n(CC)c2ccccc12)c1cc(Cl)ccc1OC,0
O=C(NC1CCCC1)C(c1ccsc1)N(Cc1ccccc1)C(=O)Cc1cccs1 (stereo not drawn),2

(continued)
SMILES	TNF necrop inh	L929 necroptosis	PERK inhibitor	RBBP9 inhibitor	EP2 antag	EP2 modulator	Hck Nef HTS
O=C(O)C(Cc1ccccc1)N1C(=O)c2ccccc2C1=O (stereo not drawn)	-0.4	0.5	0.8	2	6	5	2
Cc1ccc(S(=O)(=O)N2CCN(c3nc(C)nc4sc5c(c34)CCC(C)C5)CC2)cc1 (stereo not drawn)	-7.8	-0.1	1.5	-1	9	21	-1
O=C(Nc1cc2c(oc1=O)CCCC2=O)c1ccc(Cl)cc1	-3.3	0.5	1.2	3	8	-20	3
OCCN(CCO)c1nc(N2CCCCC2)c2nc(N(CCO)CCO)nc(N3CCCCC3)c2n1	1.3	3.4	-0.9	-3	15&17	1&-1&2	-23
COc1cccc(SCc2noc(C(=O)NCC3CCCO3)c2C(=O)O)c1 (stereo not drawn)	-1.3	0.0	1.1	-10	21	3	1
Cc1cc(=O)oc2cc(NC(=O)CCC(=O)O)ccc12	-1.0	0.2	0.1	-6	1	8	0
O=c1oc(-c2cccs2)nc2ccc(Br)cc12	-0.5	0.1	1.0	-3	6	25	0
CCCCCCCn1c(NC(=O)CC)nc2ccccc21	-1.4	-0.4	-1.7	-4	6	35	17
O=S(=O)(c1cccs1)N1CN(Cc2ccc(Cl)cc2)c2nc3ccccc3nc21	-1.4	-0.1	-0.3	-4	15	44	0
O=C(NC1CCCCC1)NC1CC2CCCC(C1)N2C1CCCC1 (stereo not drawn)	-0.9	0.5	-0.1	-6	12	26	1
COc1ccc(NC(=O)c2ccccc2NC(=O)CSc2ccc(C)cc2)cc1	0.6	-0.3	1.2	-2	11	-1	-2
Cc1ccc(-n2c(Cc3cccn3C)nnc2SCC(=O)N2CCc3ccccc32)cc1	-1.1	-0.1	-1.5	-4	2	.	0
COc1ccc(NC(=O)[C@H](COCc2ccccc2)NC(=O)OC(C)(C)C)cc1	-0.2	0.1	0.7	-3	6	5	1
Cc1sc(NC(=S)NC(=O)C(C)(C)C)c(C(N)=O)c1C	-1.9	0.6	0.6	-3	12	-29	0
NC(=O)C1(NC(=O)[C@@H]2CC3(CC(c4cccc(NC(=O)[C@@H]5CCC(=O)N5)c4)=NO3)CN2C(=O)Cc2ccc(Cl)cc2)CC1 (stereo partly drawn)	0.1	0.9	1.1	-6	9	-9	-1
COc1ccc(OC2C(=O)N(Cc3ccc4c(c3)OCO4)C2c2cccs2)cc1 (stereo not drawn)	-9.1	0.1	-0.3	-7	21	-14	0
CCOc1cc(/C=C2/C(=O)N(c3ccccc3)N=C2C)ccc1OC(=O)c1cccs1	-7.1	0.2	0.7	-7	8	15	1
COc1cccc(C(=O)N2N=C(c3cccc(OC)c3)CC2(O)C(F)(F)F)c1 (stereo not drawn)	-5.4	-0.3	-1.3	-6	5	11	1
Clc1ccc(OCc2cn3ccccc3n2)c2ncccc12	-0.7	12	-0.4	-3	11&35	-69&-57	22
CCN(CC)CCNC(=O)C1CCC(=O)N(c2ccc(OC)cc2)C1c1ccc(F)cc1 (stereo not drawn)	1.4	1.6	1.1	1	5	22	2
O=C(Nc1ccc(Cl)cc1)Nc1nc(-c2sccc2Br)cs1	-2.6	0.0	0.7	-11	.	-3	2
O=C(CSc1nnc2c3ccccc3c3ccccc3c2n1)Nc1ccccc1F	-5.4	-0.4	0.2	-10	.	15	7
Cc1ccccc1NCC(=O)N/N=C/C(Br)=C/c1ccccc1	-11	0.6	-0.1	5	18	-28	2
CCOC(=O)c1cnc(-c2ccccc2)nc1Oc1ccc(Cl)c(Cl)c1	-2.3	0.1	1.3	-3	10	25	1
CCOC(=O)/C=C/C(=O)Nc1cccc([N+](=O)[O-])c1	-5.1	-0.3	0.9	11	131*	-1	-1
CCc1cccc(CC)c1-n1c(SCc2cc(=O)n3ccsc3n2)nnc1-c1cccnc1	-15	-0.6	-0.5	-8	3	32	-1
Cc1ccc(Nc2nnns2)cc1	0.6	-0.1	-0.1	-7	-4	-15	0
COc1ccc(NC(=O)c2cc3sccc3n2Cc2ccc(F)cc2)cc1OC	-1.5	0.2	-1.3	-5	8	11	3
